Beta2AR agonist: agonists of human beta-2 adrenergic receptor inducing internalization; response, % (no concentration beside the values); P07550; actives 0.43% (n = 340,000); Am2.2-beta2AR cells, FAP receptor internalization, flow cytometry; reference of the scale not given here;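 active = response above a set limit, near 3 SD of response in nonfluorescent compounds, cut at about 42% in these data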;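 note: stock transfer was 100 nL into about 11 µL; a reference agonist was the positive control; negative values mostly stem from fluorescent compounds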
Target sequence (P07550 whole entry, looked up): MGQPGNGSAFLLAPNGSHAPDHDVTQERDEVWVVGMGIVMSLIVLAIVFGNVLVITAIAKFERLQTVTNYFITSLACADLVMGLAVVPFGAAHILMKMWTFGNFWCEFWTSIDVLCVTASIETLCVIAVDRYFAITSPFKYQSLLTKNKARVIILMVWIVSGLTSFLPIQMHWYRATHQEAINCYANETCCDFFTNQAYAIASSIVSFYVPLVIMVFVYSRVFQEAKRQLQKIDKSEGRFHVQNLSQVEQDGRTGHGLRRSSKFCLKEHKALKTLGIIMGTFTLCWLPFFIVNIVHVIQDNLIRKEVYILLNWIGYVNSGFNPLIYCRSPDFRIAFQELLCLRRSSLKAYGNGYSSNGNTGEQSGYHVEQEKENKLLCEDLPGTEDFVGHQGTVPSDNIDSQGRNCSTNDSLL
LANA-H2B inh: blocks KSHV LANA binding to histone H2A/H2B | cell-free LANA-H2A/H2B peptide, fluorescence polarization | inhibition, % (test concentration not listed) | actives 0.6% (n = 320,000); in the data active = inhibition mostly above about 10%, no sharp cut-off; inactive = mostly below about 6.7%;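 note: stock transfer was 7.5 nL into about 10 µL; 0% = median of vehicle wells and 100% = median of positive control wells; one replicate is shown; the record names a cut of 25% in any replicate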
A1 inh: inhibitors of the anti-apoptotic protein A1, read as caspase activation | actives 0.066% (n = 330,000) | MEF A1-2A-BIM cells, Caspase-Glo 3/7 luminescence, 3 h; percent of clofoctol response, vehicle zero | caspase activation, % (concentration not given with the values) | AID 2462;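 active = over half of replicate activation scores above 10%, or exactly half above 10 with the replicate mean above 10; inconclusive = replicate mean below 10 yet half the replicates above 10; inactive = over half of replicates below 10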;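 note: wells of about 30 µL received 50 nL stock; many hits fall short of the cut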
ALR inh: inhibitors of human sulfhydryl oxidase ALR. inhibition, % (no concentration beside the values). P55789. AID 485317. purified ALR, DTT oxidation, H2O2 HRP-luminol luminescence. actives 3.8% (n = 290,000);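 active = mean and each replicate at 75% or more; inconclusive = only one of the two met; inactive = neither met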;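 note: stock transfer was 7.5 nL into about 7.5 µL; 0% = neutral wells and 100% = wells with inactivated enzyme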
Target sequence (P55789 whole entry, looked up): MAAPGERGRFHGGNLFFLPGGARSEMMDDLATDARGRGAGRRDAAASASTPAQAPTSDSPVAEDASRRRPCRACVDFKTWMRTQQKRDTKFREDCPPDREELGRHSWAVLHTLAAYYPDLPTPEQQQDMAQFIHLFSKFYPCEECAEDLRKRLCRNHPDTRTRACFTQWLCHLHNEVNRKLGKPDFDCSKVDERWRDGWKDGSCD
T cruzi repl: blocks replication of Trypanosoma cruzi. T. cruzi beta-gal in NIH3T3, luminescence, 90 h. inhibition, % (concentration not given with the values). actives 1.4% (n = 300,000). AID 1885;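 active = mean inhibition across valid replicates above about 55%, limit read from the data; inconclusive = mean below that limit but half or more replicates reach it; inactive = mean below it, under half of replicates reach it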;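 note: signal also drops with host cell toxicity which is not excluded here; 0% = plate median of DMSO wells and 100% = zero luminescence signal; higher percent means less beta-gal luminescence so fewer parasites; stock transfer was 50 nL into about 50 µL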
Beta apoptosis: beta cell apoptosis inhibition; actives 0.8% (n = 300,000); INS-1E cytokine-induced death, ATP luminescence, 48 h; percent of positive-control rescue, neutral wells zero; protection from apoptosis, % (test concentration not listed);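 active = all replicates at 75% or more, or half of them and the mean; inconclusive = half reach 75% but not the mean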;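 note: 0% = cytokine-treated negative control wells and 100% = positive control rescue; higher means more ATP so stronger rescue from cytokine killing; wells of about 40 µL received 100 nL stock; the first replicate is given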
Ecoli rRNA inh: selective bacterial rRNA inhibition in E. coli | E. coli WT GFP vs humanized-ribosome RFP mutants, fluorescence, 24 h; active compounds read low; DMSO median 0, no signal -100 | GFP signal change (wild-type ribosome), % (no concentration beside the values) | actives 1.6% (n = 350,000);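 active = significant combined selectivity score with lowered wild-type GFP, culture density cut under 30%, mutant RFP and density less affected; inactive = any of these conditions unmet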; note: one replicate is shown; some compounds called inactive have numbers as strong as hits
Calb FLC: affects C. albicans growth with fluconazole; C. albicans CaCi-2 (fluconazole-resistant clinical isolate) + fluconazole, Alamar Blue growth, 48 h; growth inhibition, % (test concentration not listed); actives 0.57% (n = 300,000); AID 1979;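 active = most replicates above 75%; inconclusive = exactly half above 75%; inactive = most below 75%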;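 note: all wells also contain fluconazole at 8 µg/ml as a sub-toxic cotreatment; 0% = median of DMSO wells and 100% = median of geldanamycin control wells; wells of about 8 µL received 7.5 nL stock; the first replicate is given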
Ecoli rRNA inh OD600: recorded beside Ecoli rRNA inh, whose call it bears; OD600 change, %; measured here: OD600 growth;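 optical density of the mix in the first replicate; 0 = DMSO median and -100 = no signal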
Ecoli rRNA inh RFP: further read-out of Ecoli rRNA inh, marked with its call; RFP signal change, %; measured here: RFP humanized mutant strains;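 first replicate; 0 = DMSO median and -100 = no signal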
Active calls of the source: *; & = joins results of further samples. This is a subset; count on the stated rates, not on these rows.

How did Cc1ccc(Cc2nnc(SCC(=O)Nc3c(C)cccc3C)[nH]c2=O)cc1 do in these assays?
Beta2AR agonist: -1.3; LANA-H2B inh: -1.0; A1 inh: -0.1; ALR inh: -5.8; T cruzi repl: 4.8; Ecoli rRNA inh: 0.7; Calb FLC: -2.3; Ecoli rRNA inh OD600: 1.5; Ecoli rRNA inh RFP: -3.4

Results for Nc1nc(-c2ccccc2)nn1S(=O)(=O)c1ccccc1 ?
Beta2AR agonist: 12.4; LANA-H2B inh: 2.3; A1 inh: -0.6; ALR inh: 0.1; T cruzi repl: -9.9; Beta apoptosis: 4.7; Ecoli rRNA inh: -16.1; Calb FLC: 1.9; Ecoli rRNA inh OD600: -8.6; Ecoli rRNA inh RFP: 9.4

How did CCc1sc(C(=O)Nc2ccc(F)cc2C)cc1C do in these assays?
Beta2AR agonist: -7.8; LANA-H2B inh: 2.7; A1 inh: -3.3; ALR inh: 1.5; T cruzi repl: -6.6; Beta apoptosis: 3.2; Calb FLC: 10.7

How did COc1ccc(Cc2nnc(NC(=O)Nc3cccc(OC)c3)s2)cc1 do in these assays?
Beta2AR agonist: 1.0; LANA-H2B inh: 1.3; A1 inh: -0.4; ALR inh: -16.8; T cruzi repl: 6.4; Beta apoptosis: 4.8; Ecoli rRNA inh: 6.1; Calb FLC: -5.1; Ecoli rRNA inh OD600: 7.1; Ecoli rRNA inh RFP: -3.1

How did COc1ccc(NC(=O)CN(c2ccc([N+](=O)[O-])cc2)S(=O)(=O)c2ccccc2)c(OC)c1 do in these assays?
Beta2AR agonist: 5.6; LANA-H2B inh: 1.8; A1 inh: -0.1; ALR inh: 0.4; T cruzi repl: 1.7; Beta apoptosis: 2.0; Ecoli rRNA inh: -5.6; Calb FLC: -7.1; Ecoli rRNA inh OD600: 1.7; Ecoli rRNA inh RFP: -11.2

Results for CN(CC(O)CN1CCOCC1)S(=O)(=O)O (configuration not stated) ?
Beta2AR agonist: 0.1&0.4; LANA-H2B inh: -1.6&0.3; A1 inh: 0.6&0.9; ALR inh: -4.1&2.5; T cruzi repl: -13.7&-12.1; Beta apoptosis: -10.4; Ecoli rRNA inh: 3.8&15.9; Calb FLC: -6.1&-3.0; Ecoli rRNA inh OD600: 0.6&25.4; Ecoli rRNA inh RFP: 7.5&2.1

What do the screens show for `Cc1ccc(N(C(=O)c2csnn2)C(C(=O)NC2CCCCC2)c2cccnc2)c(C)c1` (configuration not stated)?
Beta2AR agonist: -2.8; LANA-H2B inh: -2.1; A1 inh: 0.2; T cruzi repl: 0.8; Beta apoptosis: -1.8; Ecoli rRNA inh: 3.6; Calb FLC: -8.6; Ecoli rRNA inh OD600: 10.8; Ecoli rRNA inh RFP: -5.1

Results for Cc1ccc(Nc2nnc(SCC(=O)NCCN3C(=O)CSC3=O)s2)cc1 ?
Beta2AR agonist: -4.0; LANA-H2B inh: -4.7; A1 inh: -4.5; ALR inh: 6.5; T cruzi repl: -7.1; Beta apoptosis: 3.6; Ecoli rRNA inh: 6.1; Calb FLC: -3.4; Ecoli rRNA inh OD600: 10.6; Ecoli rRNA inh RFP: 4.6

Results for Cc1ccc(NC(=O)COc2ccccc2C=O)cc1Cl ?
Beta2AR agonist: 0.9; LANA-H2B inh: 7.8; A1 inh: -0.3; ALR inh: -9.1; T cruzi repl: -1.2; Beta apoptosis: -3.8; Ecoli rRNA inh: 9.4; Calb FLC: -0.8; Ecoli rRNA inh OD600: 4.8; Ecoli rRNA inh RFP: -16.5

How did CN1C(C(=O)NCc2ccc(OC(F)(F)F)cc2)CC2Cn3c(nc4cc5ccccc5cc43)C21 (configuration not stated) do in these assays?
Beta2AR agonist: -0.2; LANA-H2B inh: 0.5; A1 inh: 0.7; T cruzi repl: 7.7; Beta apoptosis: -2.7; Ecoli rRNA inh: -2.0; Calb FLC: 6.2; Ecoli rRNA inh OD600: -5.9; Ecoli rRNA inh RFP: 2.3

How did CCCc1nc(SCC(N)=O)[nH]c(=O)c1CC do in these assays?
Beta2AR agonist: 7.9; LANA-H2B inh: -12.7; A1 inh: 0.3; ALR inh: -5.8; T cruzi repl: -16.0; Beta apoptosis: 1.2; Calb FLC: 1.3

Results for Cc1ccccc1NC(=O)Nc1cc(S(N)(=O)=O)ccc1C ?
Beta2AR agonist: -2.3; LANA-H2B inh: -0.4; A1 inh: 0.9; ALR inh: -0.1; T cruzi repl: -11.0; Beta apoptosis: -6.7; Ecoli rRNA inh: -0.7; Calb FLC: 3.5; Ecoli rRNA inh OD600: -1.1; Ecoli rRNA inh RFP: -3.3

What do the screens show for `COC(=O)c1ccccc1OCCOCCOc1cccc2cccnc12`?
Beta2AR agonist: -1.1; LANA-H2B inh: 3.7; A1 inh: 0.1; T cruzi repl: -4.9; Beta apoptosis: 4.1; Ecoli rRNA inh: -19.1; Calb FLC: -0.3; Ecoli rRNA inh OD600: -16.0; Ecoli rRNA inh RFP: 1.3

How did CCC(C)(C)NC(=O)c1cc([N+](=O)[O-])ccc1N1CCOCC1 do in these assays?
Beta2AR agonist: -8.3; A1 inh: -0.6; T cruzi repl: -3.4; Beta apoptosis: 8.1; Calb FLC: -3.4

Results for CCCCNc1c2c(nc3c(-c4ccccc4)c(C)nn13)CCC2 ?
Beta2AR agonist: -15.6; LANA-H2B inh: -3.0; A1 inh: 0.8; ALR inh: -1.1; T cruzi repl: 39.2; Beta apoptosis: 20.6; Ecoli rRNA inh: 1.7; Calb FLC: inconclusive; Ecoli rRNA inh OD600: 8.3; Ecoli rRNA inh RFP: 9.5

What do the screens show for `O=C(NCc1cccnc1)c1noc2c1CCCC2`?
Beta2AR agonist: -0.4; LANA-H2B inh: 4.7; A1 inh: 0.5; ALR inh: -4.1; T cruzi repl: -7.8; Beta apoptosis: -1.7; Ecoli rRNA inh: 9.2; Calb FLC: 7.0; Ecoli rRNA inh OD600: 5.9; Ecoli rRNA inh RFP: -4.4

How did Cc1cc(N2CCOCC2)nc(N)n1 do in these assays?
Beta2AR agonist: -1.5; LANA-H2B inh: -1.1; A1 inh: -0.4; T cruzi repl: 0.0; Beta apoptosis: inconclusive; Ecoli rRNA inh: 19.6; Calb FLC: -4.5; Ecoli rRNA inh OD600: 16.0; Ecoli rRNA inh RFP: 0.2

How did N#C/C(=C(/O)CSc1n[nH]c(N)n1)c1nc2ccccc2[nH]1 do in these assays?
Beta2AR agonist: 20.9; LANA-H2B inh: -0.3; A1 inh: -0.7; ALR inh: 1.4; T cruzi repl: 4.7; Beta apoptosis: 5.1; Ecoli rRNA inh: 8.4; Calb FLC: -0.8; Ecoli rRNA inh OD600: 10.2; Ecoli rRNA inh RFP: 1.3

What do the screens show for `CC1=C(C(=O)OCc2ccc3c(c2)OCO3)C(c2ccc(O)c([N+](=O)[O-])c2)NC(=O)N1` (configuration not stated)?
Beta2AR agonist: 0.4; LANA-H2B inh: -3.3; A1 inh: -1.9; ALR inh: -3.0; T cruzi repl: 3.4; Beta apoptosis: -6.9; Ecoli rRNA inh: 10.0; Calb FLC: -0.6; Ecoli rRNA inh OD600: 7.2; Ecoli rRNA inh RFP: 1.4

How did Cc1ccc(NC(=O)NCCCl)cc1S(=O)(=O)N1CCOCC1 do in these assays?
Beta2AR agonist: -2.3; LANA-H2B inh: -1.8; A1 inh: 0.5; ALR inh: -5.3; T cruzi repl: -4.1; Beta apoptosis: -5.0; Ecoli rRNA inh: 10.5; Calb FLC: 0.3; Ecoli rRNA inh OD600: 9.9; Ecoli rRNA inh RFP: 3.4

What do the screens show for `Cc1nc2cc(S(=O)(=O)C(F)(F)F)ccc2s1`?
Beta2AR agonist: -10.2; LANA-H2B inh: 6.2; A1 inh: -1.7; ALR inh: -1.0; T cruzi repl: -0.3; Beta apoptosis: -1.5; Calb FLC: -1.3

Results for CCc1nc(N[C@H](C(=O)O)C(C)CC)c2oc3ccccc3c2n1 (some centres not stated) ?
Beta2AR agonist: 3.9; LANA-H2B inh: 3.8; A1 inh: -0.3; ALR inh: 2.0; T cruzi repl: 1.0; Beta apoptosis: 3.4; Calb FLC: 5.9

Results for Cc1nc(-c2nc(-c3c(C(=O)NNC(=O)Nc4ccccc4)noc3C)cs2)cs1 ?
Beta2AR agonist: -4.9; LANA-H2B inh: 3.0; A1 inh: 1.7; ALR inh: 20.5; T cruzi repl: -15.8; Beta apoptosis: -1.2; Calb FLC: 4.4

How did COCCCNC(=O)Cn1nnc(-c2ccc(NC(=O)c3ccc(F)cc3)cc2)n1 do in these assays?
Beta2AR agonist: -3.2; LANA-H2B inh: -16.5; A1 inh: 0.2; ALR inh: 0.8; T cruzi repl: -3.4; Beta apoptosis: -0.7; Calb FLC: 31.5

What do the screens show for `Cc1cccc(OCC(=O)Nc2nnc(S(=O)(=O)N3CCC(C)CC3)s2)c1`?
Beta2AR agonist: -8.0; LANA-H2B inh: -2.8; A1 inh: -0.5; ALR inh: 5.9; T cruzi repl: 1.8; Beta apoptosis: 7.5; Ecoli rRNA inh: 4.3; Calb FLC: -15.9; Ecoli rRNA inh OD600: -3.2; Ecoli rRNA inh RFP: 0.0

What do the screens show for `CCC1CCCCN1C(=O)CCNC(=O)Cn1cnc2ccccc2c1=O` (configuration not stated)?
Beta2AR agonist: -0.7; LANA-H2B inh: -2.0; A1 inh: 0.0; ALR inh: -0.2; T cruzi repl: -0.8; Beta apoptosis: -1.8; Ecoli rRNA inh: 4.4; Calb FLC: 1.5; Ecoli rRNA inh OD600: 6.8; Ecoli rRNA inh RFP: -1.3

Results for COc1ccc(CCCNC(=O)C2CCC(=O)N(CCCN3CCCC3=O)C2)cc1 (configuration not stated) ?
Beta2AR agonist: 7.4; LANA-H2B inh: 4.4; A1 inh: -0.3; ALR inh: -4.4; T cruzi repl: 21.3; Beta apoptosis: -1.9; Ecoli rRNA inh: 10.0; Calb FLC: 0.8; Ecoli rRNA inh OD600: 8.6; Ecoli rRNA inh RFP: 0.0

How did c1ccc(-c2[nH]ncc2CN2CCN(Cc3ccc4c(c3)OCO4)CC2)cc1 do in these assays?
Beta2AR agonist: -2.0; LANA-H2B inh: 7.6; A1 inh: 0.7; ALR inh: 5.8; Beta apoptosis: 1.7; Ecoli rRNA inh: -46.8*; Calb FLC: 2.7; Ecoli rRNA inh OD600: -25.7*; Ecoli rRNA inh RFP: -10.6*

How did COc1cc(C(=O)OCC(=O)NCCC2=CCCCC2)ccc1OCC(C)C do in these assays?
Beta2AR agonist: 6.0; LANA-H2B inh: 0.1; A1 inh: 0.0; ALR inh: -3.3; T cruzi repl: -4.4; Ecoli rRNA inh: 0.7; Calb FLC: -7.8; Ecoli rRNA inh OD600: 2.7; Ecoli rRNA inh RFP: -0.7

How did N#Cc1ccc(CN2CCN(C(=O)c3cccc(S(=O)(=O)N4CCCCCC4)c3)CC2)cc1 do in these assays?
Beta2AR agonist: -0.6; LANA-H2B inh: 0.7; A1 inh: -0.6; Beta apoptosis: 7.3; Ecoli rRNA inh: -1.2; Ecoli rRNA inh OD600: -18.7; Ecoli rRNA inh RFP: 3.6
